# Source: PubChem (Broad Institute)
# T cruzi repl: blocks replication of Trypanosoma cruzi | T. cruzi beta-gal in NIH3T3, luminescence, 90 h | inhibition, % (test concentration not listed) | actives 1.4% (n = 300,000);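 active = mean inhibition across valid replicates above about 55%, limit read from the data; inconclusive = mean below that limit but half or more replicates reach it; inactive = mean below it, under half of replicates reach it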;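 note: signal also drops with host cell toxicity which is not excluded here; 0% = plate median of DMSO wells and 100% = zero luminescence signal; higher percent means less beta-gal luminescence so fewer parasites; stock transfer was 50 nL into about 50 µL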
# Ecoli rRNA inh: inhibitors of bacterial rRNA selective over humanized ribosomes | E. coli WT GFP vs humanized-ribosome RFP mutants, fluorescence, 24 h; active compounds read low; DMSO median 0, no signal -100 | GFP signal change (wild-type ribosome), % (test concentration not listed) | actives 1.6% (n = 350,000);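 active = significant combined selectivity score with lowered wild-type GFP, culture density cut under 30%, mutant RFP and density less affected; inactive = any of these conditions unmet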; note: one replicate is shown; some compounds called inactive have numbers as strong as hits
# RanGTP-Imp inh: disruptors of Ran-importin-beta complex formation – biochemical, FRET, CFP-Ran, YFP-importin-beta, homogeneous, primary screen; cell-free CFP-Ran/YFP-importin-beta FRET ratio; inhibition, % (no concentration beside the values); actives 1.1% (n = 300,000); AID 2216;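 active = most replicates above 15%; inconclusive = exactly half above 15%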;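 note: 0% = DMSO wells and 100% = Ran loaded with GDP instead of GTP; wells of about 40 µL received 100 nL stock; the first replicate is given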
# Beta cell apopt: beta cell apoptosis inhibition; INS-1E cytokine-induced death, ATP luminescence, 48 h; percent of positive-control rescue, neutral wells zero; protection from apoptosis, % (concentration not given with the values); actives 0.8% (n = 300,000); AID 435005;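 active = all replicates at 75% or more, or half of them and the mean; inconclusive = half reach 75% but not the mean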;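 note: 0% = cytokine-treated negative control wells and 100% = positive control rescue; higher means more ATP so stronger rescue from cytokine killing; wells of about 40 µL received 100 nL stock; the first replicate is given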
# AF4-AF9 inh: inhibitors of human MLL-AF4/AF9 interaction | P42568 | actives 0.47% (n = 350,000) | inhibition, % at 10 µM | AID 651704 | AlphaScreen, biotin-AF4 peptide binding to FLAG-AF9;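 active = every replicate reaching a set inhibition limit, whatever the replicate mean, cut at about 25% in these data; inconclusive = mean inhibition reaches that limit but some replicates miss it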;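 note: 0% = plate neutral control median and 100% = total signal loss; the record names both 10 and 1 µM as test concentration; the first replicate is given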
# Target sequence (P42568 whole entry, looked up): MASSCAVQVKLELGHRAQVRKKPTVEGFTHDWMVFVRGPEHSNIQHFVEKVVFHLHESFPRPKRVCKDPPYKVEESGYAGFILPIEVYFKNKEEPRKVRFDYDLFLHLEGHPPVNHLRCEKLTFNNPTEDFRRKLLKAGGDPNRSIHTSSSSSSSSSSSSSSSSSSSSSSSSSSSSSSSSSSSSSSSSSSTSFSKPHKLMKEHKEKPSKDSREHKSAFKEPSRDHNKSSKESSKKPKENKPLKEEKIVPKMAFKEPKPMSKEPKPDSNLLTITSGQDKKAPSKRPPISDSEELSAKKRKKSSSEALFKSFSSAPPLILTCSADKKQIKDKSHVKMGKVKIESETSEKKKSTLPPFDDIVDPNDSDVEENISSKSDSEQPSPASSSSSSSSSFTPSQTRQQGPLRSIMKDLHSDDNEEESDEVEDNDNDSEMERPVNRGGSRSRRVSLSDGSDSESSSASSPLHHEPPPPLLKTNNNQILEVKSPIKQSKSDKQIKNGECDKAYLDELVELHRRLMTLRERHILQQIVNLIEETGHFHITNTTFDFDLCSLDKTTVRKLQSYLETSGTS
# ALR H2O2 inh: inhibitors of human sulfhydryl oxidase ALR | P55789 | purified ALR, DTT oxidation, H2O2 HRP-luminol luminescence | inhibition, % (test concentration not listed) | actives 3.8% (n = 290,000) | AID 485317;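 active = mean and each replicate at 75% or more; inconclusive = only one of the two met; inactive = neither met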;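 note: stock transfer was 7.5 nL into about 7.5 µL; 0% = neutral wells and 100% = wells with inactivated enzyme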
# Target sequence (P55789 whole entry, looked up): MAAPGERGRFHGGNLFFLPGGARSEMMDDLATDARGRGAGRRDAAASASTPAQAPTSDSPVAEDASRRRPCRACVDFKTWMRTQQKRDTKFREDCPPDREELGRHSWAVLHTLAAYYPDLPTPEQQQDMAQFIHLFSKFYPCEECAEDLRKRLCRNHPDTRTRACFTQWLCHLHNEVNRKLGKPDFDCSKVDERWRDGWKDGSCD
# FGF22 binding: binders of recombinant human FGF22 by thermal shift. Q9HCT0. SYPRO orange fluorescence; percent of sucrose octasulfate shift, DMSO zero. calls only at 9.99 µM. actives 1.5% (n = 340,000);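 active = melting point raised past a set limit in the mean and every replicate; inconclusive = no clear call; three in four hits are not shown here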
# Target sequence (Q9HCT0 whole entry, looked up): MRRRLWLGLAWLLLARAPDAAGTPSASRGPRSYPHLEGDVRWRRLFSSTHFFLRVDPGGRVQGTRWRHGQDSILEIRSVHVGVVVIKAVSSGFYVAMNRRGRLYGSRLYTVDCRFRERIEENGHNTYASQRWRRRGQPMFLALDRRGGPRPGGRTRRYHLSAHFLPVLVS
# Calb FLC: affects C. albicans growth with fluconazole. C. albicans CaCi-2 (fluconazole-resistant clinical isolate) + fluconazole, Alamar Blue growth, 48 h. growth inhibition, % (test concentration not listed). actives 0.57% (n = 300,000). AID 1979;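 active = most replicates above 75%; inconclusive = exactly half above 75%; inactive = most below 75%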;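 note: all wells also contain fluconazole at 8 µg/ml as a sub-toxic cotreatment; 0% = median of DMSO wells and 100% = median of geldanamycin control wells; wells of about 8 µL received 7.5 nL stock; the first replicate is given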
# Ecoli rRNA inh OD600: further read-out of Ecoli rRNA inh, marked with its call; OD600 change, %; measured here: OD600 growth;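 optical density of the mix in the first replicate; 0 = DMSO median and -100 = no signal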
# Ecoli rRNA inh RFP: further read-out of Ecoli rRNA inh, marked with its call; RFP signal change, %; measured here: RFP humanized mutant strains;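 first replicate; 0 = DMSO median and -100 = no signal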
# * hit, by the source's call; i = inactive; ? = inconclusive; · = not tested or not shown. Not all compounds are listed (hit frequency here may not be typical).
# Start of the listing, in advance, two compounds:
SMILES,T cruzi repl,Ecoli rRNA inh,Ecoli rRNA inh OD600,Ecoli rRNA inh RFP,RanGTP-Imp inh,Beta cell apopt,AF4-AF9 inh,ALR H2O2 inh,FGF22 binding,Calb FLC
CC(C)(O)/C=C/C[C@](C)(O)C1CC[C@]2(C)C1[C@H](O[C@H]1O[C@@H](CO)[C@H](O)[C@@H](O)[C@@H]1O)CC1[C@@]3(C)CC[C@H](O)C(C)(C)C3[C@@H](O)C[C@]12C (stereo not given in full),·,11.5,3.1,-3.9,·,4.7,-4.6,-2.5,i,·
CC(C)OP(=O)(OC(C)C)C(O)c1ccc(N(C)C)cc1 (stereo not given),3.3,13.7,8.0,1.6,0.4,-4.7,-1.8,97.3*,i,2.2

# This part in full, previewed entries included:
SMILES,T cruzi repl,Ecoli rRNA inh,Ecoli rRNA inh OD600,Ecoli rRNA inh RFP,RanGTP-Imp inh,Beta cell apopt,AF4-AF9 inh,ALR H2O2 inh,FGF22 binding,Calb FLC
CC(C)(O)/C=C/C[C@](C)(O)C1CC[C@]2(C)C1[C@H](O[C@H]1O[C@@H](CO)[C@H](O)[C@@H](O)[C@@H]1O)CC1[C@@]3(C)CC[C@H](O)C(C)(C)C3[C@@H](O)C[C@]12C (stereo not given in full),·,11.5,3.1,-3.9,·,4.7,-4.6,-2.5,i,·
CC(C)OP(=O)(OC(C)C)C(O)c1ccc(N(C)C)cc1 (stereo not given),3.3,13.7,8.0,1.6,0.4,-4.7,-1.8,97.3*,i,2.2
COc1ccc(N2CCN(C(=O)c3cccs3)CC2)cc1,-1.0,7.2,-3.3,5.5,-1.2,-0.3,-2.9,93.9*,i,-6.6
Cc1cccc(NC(=O)CSc2nnc(-c3cc(C)[nH]n3)n2N)c1,-1.2,0.5,9.6,-1.6,-0.8,-4.8,-2.2,0.5,i,2.6
O=C(Nc1ccccc1)OC(CN1CCCCC1)C(F)(F)F (stereo not given),-11.2,·,·,·,-0.7,-6.2,·,-11.2,·,4.4
Cn1c(CCc2ccccc2)nnc1SCC(N)=O,-8.7,1.4,2.1,-0.3,-0.5,69.4,1.7,7.9,i,1.1
O=C(NCc1ccccc1)C1CC2CCCC(C1)C2=O (stereo not given),-11.5,·,·,·,0.0,-2.0,·,-12.8,·,-6.2
CC(=O)Nc1ccc(NC(=O)CCC(=O)OCC(=O)c2ccc(C)c([N+](=O)[O-])c2)cc1,-13.8,20.1,22.1,-3.6,-3.0,·,0.6,8.5,i,5.0
COc1ccc(CCNC(=O)c2ccc3c(c2)N(Cc2ccc(F)cc2)CCS3)cc1OC,16.7,-2.8,-7.2,5.1,3.8,-6.1,0.2,1.4,i,13.7
O=C(CCc1nc(-c2ccccc2)c(-c2ccccc2)o1)OCc1ccc(Br)cc1,8.1,·,·,·,-2.0,1.6,·,-1.2,·,-3.8
CC(C)S(=O)(=O)c1csc(NC(=O)Nc2cc(Cl)ccc2Cl)c1Cl,50.2,-41.1,-69.8,-0.6,-3.5,21.8,-1.3,-5.3,i,-24.0
CCCC(CCC(=O)NC1CCCCC1)C(=O)O (stereo not given),-15.9,·,·,·,3.2,-6.9,·,-13.8,·,-16.8

# Part of the list above, with values under each structure:
# Values in the order: T cruzi repl	Ecoli rRNA inh	Ecoli rRNA inh OD600	Ecoli rRNA inh RFP	RanGTP-Imp inh	Beta cell apopt	AF4-AF9 inh	ALR H2O2 inh	FGF22 binding	Calb FLC
- COc1ccc(CCNC(=O)c2ccc3c(c2)N(Cc2ccc(F)cc2)CCS3)cc1OC
    16.7	-2.8	-7.2	5.1	3.8	-6.1	0.2	1.4	i	13.7
- O=C(CCc1nc(-c2ccccc2)c(-c2ccccc2)o1)OCc1ccc(Br)cc1
    8.1	·	·	·	-2.0	1.6	·	-1.2	·	-3.8
- CC(C)S(=O)(=O)c1csc(NC(=O)Nc2cc(Cl)ccc2Cl)c1Cl
    50.2	-41.1	-69.8	-0.6	-3.5	21.8	-1.3	-5.3	i	-24.0
- CCCC(CCC(=O)NC1CCCCC1)C(=O)O (stereo not given)
    -15.9	·	·	·	3.2	-6.9	·	-13.8	·	-16.8

# The list continues.
SMILES,T cruzi repl,Ecoli rRNA inh,Ecoli rRNA inh OD600,Ecoli rRNA inh RFP,RanGTP-Imp inh,Beta cell apopt,AF4-AF9 inh,ALR H2O2 inh,FGF22 binding,Calb FLC
O=C(Cn1cnc2ccccc2c1=O)N/N=C/c1ccc(Br)cc1,-6.7,·,·,·,-0.1,-1.4,-0.5,-3.8,i,-10.3
Cc1ccc(NC(=S)N2CCSC2c2cccs2)cc1 (stereo not given),-62.4,-0.3,-4.5,-6.9,4.3,-4.9,1.1,-2.1,i,20.5
Cc1ccc(C(=O)Nc2nccs2)cc1S(=O)(=O)N1CCCCC1,15.2,·,·,·,1.0,-2.7,·,14.3,·,-5.3
COc1ccc(Oc2cc(NN3CCCCC3)c([N+](=O)[O-])cc2[N+](=O)[O-])cc1OC,10.5,0.3,5.2,5.2,0.2,0.0,0.5,-45.8,i,17.2
CC(C)(C)c1ccc(/C=C/C(=O)Nc2nncs2)cc1,-19.0,·,·,·,0.5,-0.5,-1.8,6.1,i,-2.1
O=C(Nc1cccc(C(F)(F)F)c1)c1n[nH]c(Cn2cncn2)n1,-27.3,·,·,·,8.9,2.2,·,-6.2,·,-10.7
CNS(=O)(=O)c1cc(NC(=O)CCCNC(=O)c2ccc(Cl)cc2)ccc1C,-6.3,-3.6,-5.4,4.0,2.3,-1.4,6.8,-2.1,i,-6.7
O=C(NCCCCc1ccccc1)C1CC(c2cccc([N+](=O)[O-])c2)=NO1 (stereo not given),-27.2,-8.6,-4.9,-8.6,5.7,5.3,-0.9,-9.0,i,-4.5
CCNc1nc2c(c(=O)n(C)c(=O)n2C)n1Cc1ccc(Cl)cc1,1.0,7.3,-1.8,-0.5,0.2,48.7,0.2,-0.4,i,11.0
Cc1cc(=O)[nH]c(SCC2COC3(CCCCC3)O2)n1 (stereo not given),-7.5,·,·,·,?,5.5,·,2.3,·,2.9
O=C(Nc1cc(C(F)(F)F)ccc1Cl)c1cc2nc3c(c(C(F)(F)F)n2n1)CCCC3,37.3,·,·,·,0.3,9.8,·,-16.4,·,-3.6
COc1ccc(S(=O)(=O)N2CCC(C(=O)NCc3ccco3)CC2)cc1C,-9.5,-0.4,-6.6,-0.4,6.1,-5.0,8.6,2.0,i,-1.2
Cc1cc(C)nc(N(C#N)Cc2ccc(Br)cc2)n1,3.8,·,·,·,2.7,-0.4,·,-6.8,·,11.1
CCCNS(=O)(=O)c1ccc(CCC(=O)N2CCOCC2)cc1,-4.7,·,·,·,-0.5,·,·,-2.5,·,8.1
COc1ccc(CCNC(=O)C(C)n2nc(C)n3c(cc4occc43)c2=O)cc1OC (stereo not given),-8.7,2.8,8.8,0.9,-1.1,1.0,-0.7,0.9,i,3.0
Cc1cccc(NC(=S)N/C(=N/S(=O)(=O)c2ccccc2)c2ccccc2)c1,2.9,12.1,9.5,2.2,6.0,3.4,4.2,-4.7,i,-10.3
CC1/C(=N/O)CC(c2ccccc2)N(C)C1c1ccccc1 (stereo not given),17.8,·,·,·,0.5,-6.7,·,-5.8,·,19.2
CN1C(=O)/C(=C/c2ccccc2OCc2ccc(F)cc2)N(C)C1=S,16.8,-7.7,-9.7,-2.0,4.1,4.6,15.7,-12.1,i,-22.5
O=C(/C=C/c1cccnc1)c1ccc(F)c(F)c1,-4.1,19.0,10.5,7.6,5.2,-3.3,0.8,16.3,i,-0.9
Cc1ccc(CNC(=O)c2oc3ccc(S(=O)(=O)N4CCC5(CC4)OCCO5)cc3c2C)cc1,21.4,·,·,·,-4.2,6.6,·,-2.7,·,16.3
CCn1c(SCC(=O)N(C)CC(=O)Nc2ccc(OC)cc2)nnc1-c1ccco1,1.8,10.0,4.8,1.9,4.4,-4.9,-1.5,7.4,i,4.5
Cc1c(CN2CCCCC2C)c(=O)n(-c2ccccc2)n1C (stereo not given),-4.6,·,·,·,0.9,-4.6,·,-3.3,·,?
COC(=O)c1ccc(CN2CCN(C3CCCCC3)C(CCO)C2)cc1 (stereo not given),1.8,16.2,10.1,-0.7,6.0,-3.8,-4.9,-4.0,i,-9.1
CCOC(=O)N1CCC(N(CCCOC)C(=O)Nc2ccc(CC)cc2)CC1,14.6,-0.5,5.3,0.8,-2.1,1.3,-7.0,-5.6,·,2.5
N#C/C(=C(/O)COc1ccc(Cl)cc1)c1nc2ccccc2s1,-47.8,-29.1,-35.9,-6.5,-4.4,13.0,-11.3,-1.4,i,93.7*
O=C(Nc1ccccc1-c1nnc(SCc2ccc(Cl)cc2Cl)o1)c1ccccc1,24.7,·,·,·,-0.4,7.5,·,-8.1,·,-0.5
Nn1cnc2cc3ccccc3cc2c1=O,-5.8,4.7,8.9,-0.9,?,1.3,-0.5,·,i,-10.7
CC(NC(=O)c1cccs1)C(c1cccs1)N1CCOCC1 (stereo not given),-2.7,·,·,·,-2.5,-5.4,·,0.2,·,-11.6
CCc1nn(C)c2c(=O)c(=O)c2n(C)[nH]1,-17.1,8.2,9.9,-1.4,2.4,-3.5,2.6,-7.0,i,27.6
O=C(O)CCCCCN1C(=O)CSC1=S,39.1,·,·,·,0.5,3.7,·,-12.2,·,45.6
CCn1c(C)c(C(C)=O)c(N2CCN(c3ccccc3)CC2)nc1=S,-27.6,·,·,·,19.5*,0.4,·,96.7*,·,-1.5
Cc1ccc(CNC(=O)C2CCC(=O)N(C3CC3)C2)cc1 (stereo not given),-16.3,-2.7,5.3,-1.4,3.0,0.7,-3.0,-9.3,i,2.2
Cc1c(Cl)ccc2c(C(=O)NCCCn3nccc3C)cc(-c3ccccn3)nc12,16.9,1.1,1.1,0.2,4.8,29.1,-10.6,-2.4,i,6.6
COc1ccc(/C(C)=N/Nc2cc(C(F)(F)F)ccc2Cl)c(OC)c1,33.6,·,·,·,-1.1,-0.5,·,·,·,-19.2
COc1ccccc1-c1noc(COC(=O)c2ccc(Br)o2)n1,·,·,·,·,·,-6.3,-0.4,1.7,i,·
Cc1ccccc1Nc1nc(N)nc(CCl)n1,6.8,·,·,·,-3.8,-5.6,-1.8,9.6,i,2.7
CCCN(CCC)CCNC(=O)c1cc2c(-c3ccccc3F)nn(C)c2s1,40.0,-3.8,-5.5,4.7,0.2,4.7,4.4,-25.6,i,-7.6
COc1ccc(S(=O)(=O)Nc2ccccc2)cc1,-14.0,14.2,-7.4,4.1,10.3,1.2,-0.9,-23.8,i,6.1
